Source: PubChem BioAssay (ICCB-Longwood Screening Facility, Harvard Medical School)
KSHV LANA nucl: inhibitors of KSHV LANA binding to nucleosomes; z-score (no concentration beside the values); AID 720717; 0.3% of 51,000 active; FITC-LANA1-23 / chicken nucleosome fluorescence polarization; stronger effect = lower value;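 active = both repeat wells score below -2 in polarization z-score versus plate sample wells, excluding overly bright wells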;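 note: 100 nL library stock added to about 30 µL; numbers are from one replicate; some results filed as inactive read as strong as hits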
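Test system: purified chicken nucleosomes with FITC-labelled LANA N-terminal peptide (1-23); Input: 240 nM purified chicken nucleosomes (480 nM peptide binding sites), final; Medium: TEN-BT buffer, pH 7.5; Timing: 10–45 min, room temperature; Technique: fluorescence polarization, 480 nm excitation, 535 nm parallel and perpendicular emission; Replication: duplicates.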
Ab BasE inh: BasE siderophore biosynthesis inhibition; 0.1% of 84,000 active; inhibition, % (concentration not given with the values); AID 485350; purified BasE, fluorescence polarization binding displacement;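 active = both replicates above 25% with normal brightness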;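 note: 0% = negative plate control signal and 100% = positive plate control signal; stock transfer was 100 nL into about 30 µL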
Starred values were filed as active, the others as inactive; / = not tested or not shown; & = joins results of further samples. This is a subset, so the mix of outcomes need not match the whole.

| SMILES | KSHV LANA nucl | Ab BasE inh |
| --- | --- | --- |
| CN(C)C(=O)Oc1cc(CSC(C)(C)C)nc(-c2cccs2)n1 | -0.096 | / |
| COc1ccc(-n2c(-c3ccco3)nc3ccccc3c2=O)cc1 | / | -0.9 |
| CC(=O)NC(C(=O)NCc1ccc(C)cc1)C(C)C (stereo not drawn) | / | 1.7 |
| O=c1cccc2n1CC1CC2CN(c2ncnc3c2cnn3-c2ccc(Cl)cc2)C1 (stereo not drawn) | 0.5 | -0.1 |
| O=C1OCCN1N=Cc1ccc([N+](=O)[O-])o1 | -0.37 | 1.6 |
| O=C(Nc1ccccc1F)OC1CN2CCC1CC2 (stereo not drawn) | -0.42 | / |
| CN1C(=O)C(Cc2cccs2)C(=O)N(C)C1=O | 0.53 | -2.6 |
| CN(C)C(=O)Oc1nnc(SCCS(=O)(=O)c2ccc(F)cc2)n1C1CC1 | 0.36 | 1.5 |
| N#Cc1ccc(NC(=O)CSC2=Nc3ccccc3C3CC=NN23)cc1Cl (stereo not drawn) | / | -0.1 |
| CN(C)c1ccc(/C=C/C=C2/C(=O)NC(=O)N(c3ccccc3)C2=O)cc1 | / | -3.9 |
| COc1ccc(/C=C/C(=O)N2c3ccc(C)cc3C3CN(C)CCC32)cc1 (stereo not drawn) | / | -6.3 |
| O=C(Cc1ccccc1)Oc1cccc(-n2cnnn2)c1 | -0.35 | -0.6 |
| Cc1ccc(C2=NC3(CCNCC3)NC2=S)cc1 | 2.3 | -1.3 |
| COc1cc(NC(=O)CN2C3CCC2CC(O)(c2cccnc2)C3)cc(OC)c1 (stereo not drawn) | -0.27 | -1.4 |
| C=CCN1C(=O)NC(=O)/C(=C\c2ccc(O)c(O)c2)C1=O | / | 5.8 |
| CN(C)C1(CNC(=O)Cc2ccccc2F)CCCCC1 | / | 2.3 |
| NCCc1c[nH]c2ccccc12 | -0.67 | -8.3 |
| COP1(=S)/C(=C2/N(C)c3ccccc3C2(C)C)C=NN1C (stereo not drawn) | / | 4.5 |
| CC(=O)N[C@@H](C)C(=O)NCc1ccc2c(c1)OCO2 | / | 2.8 |
| CN1N=C(c2ccccc2)NN(C)P1(=S)c1ccccc1 (stereo not drawn) | / | -2.8 |
| O=C(C1CC(=O)N(C2CCCCCCC2)C1)N1CCC2(CC1)OCCO2 (stereo not drawn) | 1.4 | 0.1 |
| CC(C)(C)NC(=O)[C@@H]1C[C@@H]2CCCC[C@@H]2CN1 | 0.48 | 1.5 |
| C=C(C)Cc1c(C)nc(-c2ccc(C)c(Cl)c2)nc1OC(=O)N(C)C | -0.29 | / |
| Nc1ccc(NC2=NCCCS2)cc1 | 1.2 | 2.9 |
| CC(C)OP(C)(=O)C(=O)Oc1ccccc1 (stereo not drawn) | / | 0.7 |
| CCC1CCCCN1P(=O)(c1ccc(C)o1)C(C)(C)C (stereo not drawn) | / | 1.1 |
| CN(C)C1=NP(N(C)C)(N(C)C)=NC(c2ccccc2)=N1 | / | -0.3 |
| CCOP(=S)(OCC)N1CCOCC1 | 0.23 | 0.1 |
| CCC(COC(=O)c1cc(OC)c(OC)c(OC)c1)(c1ccccc1)N(C)C (stereo not drawn) | -0.28 | / |
| CC1(C)CC(NC(=O)CN2CCCC2=O)CC(C)(C)N1 | -0.58 | 3.1 |

Continued:
| SMILES | KSHV LANA nucl | Ab BasE inh |
| --- | --- | --- |
| FC(F)(F)c1cccc(N2CCN(c3ncnc4nc[nH]c34)CC2)c1 | -0.52 | 1.4 |
| CCC1(c2ccccc2)C(=O)N(COC)C(=O)N(COC)C1=O | -0.57 | -2.1 |
| CC(C)(C)c1nc(N2CCN(C(=O)c3ccco3)CC2)c2nnn(Cc3ccccc3Cl)c2n1 | 2.3 | 0.3 |
| Cc1nc(-c2ccc(Cl)cc2)nc(OC(=O)N(C)C)c1C | 0.84 | / |
| Nc1ccc(S(=O)(=O)N2CCCCC2c2cccnc2)cc1 (stereo not drawn) | 0.65 | -1.2 |
| CN1/C(=C\C=C2C(=O)NC(=O)NC2=O)C(C)(C)c2ccccc21 | -4.2 | 8.2 |
| CCCc1cc(=O)oc2cc(OC(=O)N(C)C)ccc12 | 0.64 | / |
| CN(C)P1(N(C)C)=Nc2c(c(N)nn2C)C(c2ccccc2)=N1 | / | 2.6 |
| C[C@]12CCC(=O)C=C1C=C[C@@H]1[C@@H]2CC[C@@]2(C)[C@H]1CC[C@@]2(O)CCC(=O)O | -0.36 | -3.0 |
| CC(N)C(=O)c1cccs1 (stereo not drawn) | -0.094 | -2.8 |
| COC(=O)c1cc2c(s1)=NC=NP=2(N1CCOCC1)N1CCOCC1 | / | -3.4 |
| O=S(=O)(NC1CN2CCC1CC2)c1ccc(Cl)cc1 (stereo not drawn) | / | 0.9 |
| O=C1NC(=O)N(Cc2ccccc2)C(=O)/C1=C\c1ccccc1 | / | 0.8 |
| c1ccc2c(CCNC3CCNCC3)c[nH]c2c1 | -0.53 | -4.6 |
| CCn1cc(C=C2C(=O)NC(=O)NC2=O)c2ccccc21 | -3.2* | 1.9 |
| CC[C@]12C=CCN3CCC4(c5ccc(OC)cc5N(C)[C@H]4C(O)(C(=O)OC)[C@@H]1OC(C)=O)C32 (stereo partly drawn) | 0.33 | 0.3 |
| C=CCN1C(=O)/C(=C/c2cc(C)n(-c3ccccn3)c2C)C(=O)NC1=S | / | -0.9 |
| O=C1C=C2C3CCN(CC3)C2CC1 (stereo not drawn) | -0.61 | -0.7 |
| CC(c1ccccc1F)n1cc(C(=O)NC2CCCC2)nn1 (stereo not drawn) | -1.2 | -1.6 |
| c1ccc2c3c([nH]c2c1)CNCC3 | 2.4 | / |
| FC(F)(F)c1ccc(C2C3C(=NN2c2cc(Cl)ccc2Cl)C2CCN3CC2)cc1 (stereo not drawn) | -0.045 | / |
| CCOC(=O)C1CC2CCCN2C12C(=O)N(Cc1ccccc1)c1ccccc12 (stereo not drawn) | 0.52 | 0.6 |
| Cc1cccc(CC(=O)N2CCC3(CC2)OCCO3)c1 | -0.94 | 2.6 |
| CN(CCc1ccccc1)Cc1c(F)cccc1F | 2.6 | -1.9 |
| C1=CCC2CC=CC(C1)N2 (stereo not drawn) | -0.65 | 1.1 |
| C=CC1CN2CCC1CC2C(OC(=O)OCC)c1ccnc2ccc(OC)cc12 (stereo not drawn) | -0.23 | -1.6 |
| CN1C(=O)C(=C/C=C/c2ccccc2)C(=O)N(C)C1=O | -0.38 | 0.8 |
| CC(=O)c1c(O)c(C)c(O)c(Cc2c(O)c3c(c(C(=O)/C=C/c4ccccc4)c2O)OC(C)(C)C=C3)c1O | -0.52 | -0.1 |
| O=C(Cn1cc(C(=O)c2ccccc2)c2ccccc21)NCc1ccco1 | -0.14 | 2.5 |
| CN1CCSC1=Nc1cccc(C(F)(F)F)c1 | / | 1.8 |

Rewritten with two lines to a compound: 19 of the compounds above
Values in the order: KSHV LANA nucl	Ab BasE inh
> CN(C)C(=O)Oc1cc(CSC(C)(C)C)nc(-c2cccs2)n1
→ -0.096	/
> COc1ccc(-n2c(-c3ccco3)nc3ccccc3c2=O)cc1
→ /	-0.9
> CC(=O)NC(C(=O)NCc1ccc(C)cc1)C(C)C (stereo not drawn)
→ /	1.7
> O=c1cccc2n1CC1CC2CN(c2ncnc3c2cnn3-c2ccc(Cl)cc2)C1 (stereo not drawn)
→ 0.5	-0.1
> O=C1OCCN1N=Cc1ccc([N+](=O)[O-])o1
→ -0.37	1.6
> O=C(Nc1ccccc1F)OC1CN2CCC1CC2 (stereo not drawn)
→ -0.42	/
> CN1C(=O)C(Cc2cccs2)C(=O)N(C)C1=O
→ 0.53	-2.6
> CN(C)C(=O)Oc1nnc(SCCS(=O)(=O)c2ccc(F)cc2)n1C1CC1
→ 0.36	1.5
> N#Cc1ccc(NC(=O)CSC2=Nc3ccccc3C3CC=NN23)cc1Cl (stereo not drawn)
→ /	-0.1
> CN(C)c1ccc(/C=C/C=C2/C(=O)NC(=O)N(c3ccccc3)C2=O)cc1
→ /	-3.9
> COc1ccc(/C=C/C(=O)N2c3ccc(C)cc3C3CN(C)CCC32)cc1 (stereo not drawn)
→ /	-6.3
> O=C(Cc1ccccc1)Oc1cccc(-n2cnnn2)c1
→ -0.35	-0.6
> Cc1ccc(C2=NC3(CCNCC3)NC2=S)cc1
→ 2.3	-1.3
> COc1cc(NC(=O)CN2C3CCC2CC(O)(c2cccnc2)C3)cc(OC)c1 (stereo not drawn)
→ -0.27	-1.4
> C=CCN1C(=O)NC(=O)/C(=C\c2ccc(O)c(O)c2)C1=O
→ /	5.8
> CN(C)C1(CNC(=O)Cc2ccccc2F)CCCCC1
→ /	2.3
> NCCc1c[nH]c2ccccc12
→ -0.67	-8.3
> COP1(=S)/C(=C2/N(C)c3ccccc3C2(C)C)C=NN1C (stereo not drawn)
→ /	4.5
> CC(=O)N[C@@H](C)C(=O)NCc1ccc2c(c1)OCO2
→ /	2.8

Next entries follow:
| SMILES | KSHV LANA nucl | Ab BasE inh |
| --- | --- | --- |
| COCc1cc(OC(=O)N(C)C)nc2c1c(C)nn2C | / | 0.2 |
| C#C[C@]1(O)CC[C@H]2[C@@H]3CCC4=CC(=O)CCC4=C3C=C[C@@]21CC | 0.13 | / |
| CCCC1COC(Cn2cncn2)(c2ccc(Cl)cc2Cl)O1 (stereo not drawn) | 0.38 | -0.3 |
| CCCCC/C=C\C/C=C\C/C=C\C/C=C\CCCCCC(=O)NCCO | -0.88 | -1.1 |
| CNCCc1ccncc1 | 0.88 | -1.2 |
| COc1ccc(C2(O)CC3CCC(C2)N3)cc1 (stereo not drawn) | -0.8 | -0.6 |
| COc1cc(C2NN=C3C4CCN(CC4)C32)cc(OC)c1OC (stereo not drawn) | / | 1.4 |
| Cc1cc(Br)ccc1N1C(=O)CC(=O)NC1=S | / | 0.5 |
| N#Cc1sc2nc3c(cc2c1N)CCC3 | 0.26 | 0.0 |
| CCCc1nc2ccccc2c(=O)n1-c1ccccc1 | -0.5 | 0.7 |
| Nc1ccc(Br)cc1C(=O)c1ccccc1 | / | 1.1 |
| c1ccc(CN2CCc3nc4ccccc4cc3C2)cc1 | 0.48 | / |
| CN1CCCN(C(=O)Cc2cccs2)CC1 | -0.17 | 0.8 |
| CC1(C)CC2=[N+]([O-])CN(O)C2C(C)(C)N1O (stereo not drawn) | -0.47 | -0.3 |
| O=c1c2ccccc2nc(-c2ccco2)n1-c1ccc(Cl)cc1 | -0.78 | 0.6 |
| COc1ccc(CCC(C)N)cc1 (stereo not drawn) | -0.4 | -1.5 |
| N#CC(C#N)=Cc1ccc(N2CCCCC2)cc1 | 1.6 | -6.5 |
| NC(=O)CN1C2CCC1CC(NC(=O)C1CC1)C2 (stereo not drawn) | -0.72 | 2.2 |
| COc1ccc(C(CN(C)C)C2(O)CCCCC2)cc1 (stereo not drawn) | 0.022&-0.44&1.2&-0.037 | 0.1 |
| COc1cc2c(c(OC)c1OC)-c1ccc(O)c(=O)cc1C(NC(C)=O)CC2 (stereo not drawn) | -0.46 | 0.3 |
| COC(=O)C(O)(c1ccc(N(C)C)cc1)C(F)(F)F (stereo not drawn) | / | 0.6 |
| CC(C)[C@]1(O)[C@@H](OC(=O)c2ccc[nH]2)[C@@]2(O)[C@@]3(C)C[C@]4(O)O[C@@]5([C@H](O)[C@@H](C)CC[C@]35O)[C@@]2(O)C41C | -0.23 | 2.1 |
| NC(=NCCC[C@H](N)C(=O)O)N[N+](=O)[O-] | 0.1 | 0.5 |
| CCCC(=O)OCC[N+](C)(C)C | 0.025 | / |
| CNc1ccc2oc(C[C@@H]3OC4(CC[C@@H]3C)O[C@H](C(C)C(=O)c3ccc[nH]3)[C@H](C)C[C@H]4C)nc2c1C(=O)O (stereo partly drawn) | -0.21 | 0.8 |
| Cc1ccc(P(=O)(N2CCOCC2)N2CCOCC2)o1 | / | -2.3 |
| CCCc1c(C)nc(SCc2c(F)cccc2Cl)nc1OC(=O)N(C)C | 0.52 | / |
| O=P1(c2ccccc2)C=CCC1 (stereo not drawn) | / | -3.8 |
| c1cc2c(cc1CN1CCNCC1)OCO2 | 2.3 | -0.7 |
| CCc1ccc(CN2CCN(CC)CC2)cc1 | 1.2 | -5.4 |

(next part)
| SMILES | KSHV LANA nucl | Ab BasE inh |
| --- | --- | --- |
| CC1(C)C2CCC13CSN1OC13C2 (stereo not drawn) | 0.43 | 2.9 |
| COc1ccc(-n2c(C)nc3cc(C(=O)N4CCC5(CC4)OCCO5)ccc32)cc1 | -0.57 | -2.4 |
| NCCc1ccccc1F | / | -0.8 |
| CN1CCN(Cc2cn3ccccc3n2)CC1 | 2.2 | -4.3 |
| CCN1C[C@]2(COC)CC[C@H](O)[C@@]34C5C[C@H]6C(OC)C5[C@](O)(C[C@H]6OC)C(O)(C(OC)C23)[C@@H]14 (stereo partly drawn) | -0.25 | -1.1 |
| CCOc1ccccc1Oc1coc2cc(OC(=O)N(C)C)ccc2c1=O | 0.58 | -0.9 |
| COc1ccc(C2NCCc3[nH]cnc32)cc1OC (stereo not drawn) | -0.44 | 1.9 |
| COc1cc2c(cc1-c1cc3cc4ccoc4cc3oc1=O)OCO2 | 1.1 | -2.5 |
| O=C1CCN(C(=O)CCCn2c(=O)oc3ccccc32)CC1 | / | -0.4 |
| O=C1NC(=S)NC(=O)C1=Cc1ccccc1 | / | 2.6 |
| COCC(C)N=C=S (stereo not drawn) | / | 2.0 |
| Cc1ccc(NC2=NC(C)(C)CS2)cc1Cl | / | 2.0 |
| Cc1ccc(NP(C(C)C)C(C)C)nc1 | 0.35 | 2.9 |
| S=C=NCC1CCCO1 (stereo not drawn) | / | 1.9 |
| CC(=O)N1CCC2(CC1)c1cccn1-c1ccccc1CN2C(=O)Nc1ccc(C)cc1C | 0.76 | -0.2 |
| CSc1nc2ccccc2c(=O)n1-c1ccccc1C | -0.51 | -2.1 |
